High-throughput results (PubChem)
Marburg entry inh = qHTS for inhibitors of binding or entry into cells for Marburg Virus; Marburg virus pseudotyped entry inhibition, cell reporter; control for the full effect not named in the record; about a third of the inactives were read at about 46 µM; Potency, µM (top dose mostly 37.8 µM), for inactives: top-dose activity change, negative = inhibition, actives largely listed as inhibitors; actives 1.8% (n = 300,000); AID 540276, 2011; active = well fitted inhibition curve with a large enough effect; inconclusive = small, poorly fitted or top-dose-only effect, or effect the other way; inactive = flat fitted curve, though single readings scatter; tested in HEK293 cells; about a fifth of its hits are not listed in these tables; also: % is scaled to controls: 0 for no effect and ±100 for the full control effect; luciferase read-out
RE007 growth inh = qHTS Assay for Inhibitors of the HIV-1 protein Vpr. actives 0.21% (n = 360,000). Potency, µM (titrated, usually from 92.2 µM), for the others: at the highest dose activity change, negative = less growth. S. pombe RE007 Vpr strain, BacTiter-Glo ATP luminescence, 24 h; control for the full effect not named in the record; active = well fitted falling curve with a large enough effect; inconclusive = small, poorly fitted or top-dose-only effect; inactive = no such curve, though single readings can be large or run the other way;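 also: % is scaled to controls: 0 for no effect and ±100 for the full control effect; nearly all actives have a fitted effect of over 50% in size; the assay follows cell death caused by Vpr and the record does not say whether a fall means rescue or toxicity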
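Fission yeast RE007 carrying one integrated HIV-1 vpr copy, seeded at OD 0.01 in PMG+AL medium with 23 nL pinned compound. Grown 24 h at 30 degrees; viability read by BacTiter-Glo luminescence after 5 min.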
Cruzain inh noDet = qHTS Assay for Promiscuous and Specific Inhibitors of Cruzain (without detergent). Cruzipain (Trypanosoma cruzi), P25779. purified cruzain, Z-FR-AMC fluorescence, no detergent. Potency, µM, inactives show max response, negative = inhibition, actives largely listed as inhibitors. actives 2.3% (n = 200,000);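 also: plate controls were enzyme without inhibitor for no effect and buffer without enzyme for full effect; nearly all actives have a fitted effect of over 40% in size; top concentration of the series not given in the record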
Target sequence (P25779 123-467 limits assumed): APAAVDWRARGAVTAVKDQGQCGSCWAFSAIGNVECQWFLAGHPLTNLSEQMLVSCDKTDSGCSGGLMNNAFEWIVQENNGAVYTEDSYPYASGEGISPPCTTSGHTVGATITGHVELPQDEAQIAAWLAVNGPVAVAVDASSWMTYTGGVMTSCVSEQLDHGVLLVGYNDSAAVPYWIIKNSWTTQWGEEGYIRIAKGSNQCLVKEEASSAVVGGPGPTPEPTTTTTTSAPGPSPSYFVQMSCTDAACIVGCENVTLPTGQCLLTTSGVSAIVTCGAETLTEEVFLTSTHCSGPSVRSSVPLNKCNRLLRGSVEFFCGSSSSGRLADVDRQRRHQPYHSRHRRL
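Detergent-free condition (0.00005% Triton X-100) in acetate buffer pH 5.5 with DTT. 1.5 nM enzyme and compound were pre-mixed 15 min, then 2 uM Z-FR-AMC substrate added; reaction progress from fluorescence change between first and third reads (60 s).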
StopGo reporter = High Throughput Screening for Foot and Mouth Disease Virus Antivirals; human cells with a luciferase reporter of 2A StopGo recoding; control for the full effect not named in the record; Potency, µM (titrated, usually from 57.9 µM), inactives show top-dose signal change, negative = less light; actives 1.2% (n = 410,000); active = well fitted falling curve with a large enough effect; inconclusive = small, poorly fitted or top-dose-only effect; inactive = no such curve, though single readings can be large or run the other way; tested in HEK293T cells; also: % is scaled to controls: 0 for no effect and ±100 for the full control effect; nearly all actives have a fitted effect of over 45% in size; luciferase light after 4 h
SARS PLpro yeast = qHTS of Yeast-based Assay for SARS-CoV PLP. S. cerevisiae expressing SARS-CoV PLpro, growth rescue; control for the full effect not named in the record. Potency, µM (top dose mostly 32.9 µM), for the others: at the top dose activity, positive = growth rescue. actives 0.19% (n = 330,000). AID 485353, 2010; active means well fitted rising curve with a large enough effect; inconclusive means small, poorly fitted or top-dose-only effect; inactive means no such curve, though single readings can be large or run the other way; also: 0% is about no effect; nearly all actives have a fitted effect of over 55% in size; growth read by luminescence after 48 h
LASV entry inh = qHTS for Inhibitors of binding or entry into cells for Lassa Virus | Lassa virus pseudotype entry inhibition, cell reporter; control for the full effect not named in the record | actives 1.2% (n = 300,000) | Potency, µM (highest dose often 37.9 µM), for the others: at the top dose activity change, negative = inhibition, usual class: inhibitors; active means well fitted inhibition curve with a large enough effect; inconclusive means small, poorly fitted or top-dose-only effect, or effect the other way; inactive means flat fitted curve, though single readings scatter; tested in HEK293 cells; also: % is scaled to controls: 0 for no effect and ±100 for the full control effect; nearly all actives have a fitted effect of over 50% in size; luciferase read-out
NS1 inh = qHTS Assay for Inhibitors of Influenza NS1 Protein Function; S. cerevisiae slowed by influenza A NS1, growth recovery by OD600; Potency, µM (top dose mostly 46.1 µM), inactives show at the top dose activity, positive = more growth; actives 0.4% (n = 270,000); AID 2326, 2010; active means well fitted rising curve with a large enough effect; inconclusive means small, poorly fitted or top-dose-only effect; inactive means no such curve, though single readings can be large or run the other way; also: nearly all actives have a fitted effect of over 50% in size
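Compounds were scored for reversing the slow growth caused by influenza A NS1 in S. cerevisiae, measured by optical density at 600 nm. Assay medium contained 2% galactose at pH 6.0; NS1-free yeast of the same strain were the positive control.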
Cruzain inh Det = qHTS Assay for Promiscuous and Specific Inhibitors of Cruzain (with detergent); purified cruzain, Z-FR-AMC fluorescence, 0.01% Triton; Potency, µM, inactives show max response, negative = inhibition, most hits filed as inhibitors; actives 0.43% (n = 200,000); AID 1478, 2009;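 also: plate controls were neutral wells for no effect and buffer without enzyme for full effect; nearly all actives have a fitted effect of over 40% in size; top concentration of the series not given in the record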
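Z-FR-AMC hydrolysis (2 uM substrate) by cruzain (1.5 nM) monitored kinetically at ex 360/em 450 nm after 15 min room-temperature compound exposure; 0.01% Triton X-100, pH 5.5, 5 mM DTT.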
The depositor's hits bear a star; u = inconclusive; x = no result given; & = joins results of further samples; [ ] = dose if it differs, or a comment. Unless noted, calls follow the shape of the dose curve; as a rule, active = well fitted curve in the direction sought with a large enough effect; inconclusive = small, poorly fitted or top-dose-only effect, or another doubt; inactive = no such curve, though single readings can be large; an effect the other way counts as inactive or inconclusive. Potency is read from the fitted curve at half-maximal effect.

Under each structure: Marburg entry inh, RE007 growth inh, Cruzain inh noDet, StopGo reporter, SARS PLpro yeast, LASV entry inh, NS1 inh, Cruzain inh Det
- O=C(Nc1ccc2c(c1)nc1n2CCN(Cc2ccccc2)C1)NC1CCCCC1
  5%, -13%, u, 23%, 6%, 3%, 10%, -3.6%
- O=C(C=Cc1ccccc1Cl)c1ccccc1
  u, -13%, x, 15%, x, 1%[46.1 µM], x, x
- CCCOc1cccc(-c2nnc(NC(=O)c3ccco3)s2)c1
  x, -22%, x, 50%[activator], 10%, x, 0%, x
- COCCOC(=O)C1=C(C)N=C2SCCC(=O)N2C1c1ccc(C(=O)OC)cc1 (stereo not given)
  -20%, 8%, u, 12%, 0%, 8%, -12%, 0.0%
- O=C(Cn1cnc2ccccc2c1=O)NCCC(=O)N1CCC2(CC1)OCCO2
  -2%[46.1 µM], -5%, 7%, 6%, 16%, 8%, 7%, 5.8%
- Cn1c(CN2CCOCC2)nc2cc(NC(=O)COc3ccc([N+](=O)[O-])cc3)ccc21
  u, 3%, x, u, 1%, 3%, 9%, x
- O=C(c1ccc(Cl)cc1Cl)N1CCOCC1
  2%[46.1 µM], 1%, x, 2%, x, -2%[46.1 µM], x, x
- CN1C2C=C3C(C#N)=C(N)C(C#N)(C#N)[C@@H](c4cccs4)C3C1CC2 (stereo not given in full)
  -1%, -6%, -21%, -5%, 6%, 1%, 12%, -11%
- CCOC(=O)c1c(NC(=O)c2ccnn2C)sc(C)c1C
  -21%, 2%, u, -28%, 3%, -13%, -1%, -2.0%
- NC(=O)c1c(NC(=O)c2ccc(S(=O)(=O)N3CCOCC3)cc2)sc2c1CCCCC2
  25%, 0%, u, 2%, 13%, 5%, 15%, -4.4%
- COc1cc(CNc2nc3ccccc3[nH]2)cc(OC)c1OC
  -6%&-6%, -21%, u, 0%, 4%, 4%, -3%, -15%
- CC(C)Oc1cccc(C(=O)NC(=S)Nc2ccc(Cl)c(C(=O)O)c2)c1
  u, 3%, -5%, 32%[activator], u, 0%, -52%, 0.1%
- O=C1C(=O)N(CCCn2ccnc2)C(c2ccccn2)/C1=C(/O)c1ccccc1 (stereo not given)
  x, x, -4%, x, 1%, x, 8%, 3.0%
- O=C1c2ccccc2C(=O)c2c1cccc2N1CCN(C/C=C/c2ccccc2)CC1
  1%[46.1 µM], -7%, x, -13%, x, -2%, x, x
- O=C(CSc1nnc(C2CCCCC2)o1)N1CCCCC1
  0%, 19%, 0%, 42%[activator], 2%, u, -1%, 3.3%
- CCn1ccnc1CN1CCCC(C(=O)c2ccc3cc(OC)ccc3c2)C1 (stereo not given)
  u, -22%, x, u, -3%, u, -1%, x
- COc1ccc(CN(C)CC(=O)Nc2cc3oc4ccccc4c3cc2OC)c(OC)c1
  u, -7%, u, -5%, -25%, -1%, -17%, -6.3%
- Fc1ccccc1-c1nc(-c2cnccc2C(F)(F)F)no1
  0%[46.1 µM], -27%, x, 40%[activator], 0%, 20%[46.1 µM], 0%, x
- CCCC(=O)N1CCN(c2ccc(NC(=O)c3cc4ccccc4o3)cc2Cl)CC1
  u, -16%, 1%, 4.5µM*, -4%, 16µM*, -68%, -0.7%
- CC(=O)c1cccc(NC(=O)CN2C(=O)COc3ccc(S(=O)(=O)N4CCOCC4)cc32)c1
  x, 3%, x, 32%[activator], -2%, x, -1%, x
- CCOc1ccc(-c2nnc(-c3ccccc3)o2)cc1
  u, u, 1%, -26%, 27%, u, -3%, -8.6%
- COc1ccc(CCNC(=O)C(=O)Nc2ccccc2F)cc1
  x, x, -10%, 33%[activator], x, -28%[46.1 µM], x, -0.3%
- Cc1ccc(Cn2c3ccccc3c3cnn(CC(=O)N4CCCCCC4)c(=O)c32)cc1
  22%[46.1 µM], x, -1%, -24%, x, x, x, -3.7%
- Cc1cc(C)cc(NC(=O)CN2C(=O)CSc3ccc(S(=O)(=O)N(C)C)cc32)c1
  x, x, -24%, -4%, x, 2%[46.1 µM], x, -1.0%
- COc1ccc2c(/C=C/c3cc[n+](C)cc3)c[nH]c2c1
  -28%, -25%, x, u, 1%, -15%, -3%, x
- COc1cccc2cc(C(=O)C3=C(O)C(=O)N(CCN(C)C)C3c3ccc(Cl)cc3)oc12 (stereo not given)
  -1%[46.1 µM], 2%, x, 2%, 11%, 0%, 4%, x
- Cc1cc(C)nc(NC2=NCC(=O)N2c2ccc(Cl)cc2)n1
  0%&0%&0%, 10%, 5%, -27%, 2%, 19%, 12%, 3.4%
- NNC(=O)COc1cccc(Oc2ccccc2)c1
  0%[46.1 µM], -26%, x, -21%, -6%, 23%[46.1 µM], x, x
- C=C1CCN([C@H](C(=O)NCc2ccccc2)C(C)C)S(=O)(=O)c2ccccc21
  x, 4%, x, -4%, 0%, x, 3%, x
- CCCC(=O)N1CCN(c2ccc(NC(=O)c3cc4ccccc4o3)cc2)CC1
  u, 7%, 20%, 25µM*, -2%, -18%, -36%, 1.6%
- CSc1ccc(C(=S)N2CCN(CCO)CC2)cc1
  1%, 0%, -5%, x, -4%, -4%, -2%, 11%
- O=C(c1ccco1)N1CCN(Cc2cn[nH]c2-c2cccc3ccccc23)CC1
  x, -3%, x, -11%, 4%, x, 5%, x
- O=C(CC1N=C2c3ccccc3N=C(SCC(=O)Nc3ccc(F)cc3)N2C1=O)NCc1cccs1 (stereo not given)
  x, x, -5%, -21%, x, 26%[46.1 µM], x, -1.6%
- CCOc1ccc(N2C(=O)/C(=C/c3ccc(C)o3)N(C)C2=S)cc1
  19%, 24%, -16%, -7%, -75%, -1%, 2%, -3.5%
- CC(NC(=O)Nc1ccc(O)cc1)(C(F)(F)F)C(F)(F)F
  -4%&-4%, -2%, 13%, -5%, -7%, -21%, -2%, -1.3%
- COc1cc2c(cc1OC)C(c1ccc(F)cc1)N(c1cccc(C#N)c1)C(=O)C2 (stereo not given)
  -19%[46.1 µM], x, 1%, -5%, x, -9%[46.1 µM], x, -4.0%
- COc1cccc(CNC(=O)CN(c2ccc(C(C)C)cc2)S(=O)(=O)c2c(C)n[nH]c2C)c1
  u, x, u, -29%, x, u, x, -8.7%
- O=C(N1CCOCC1)N1CCN(CC(O)COc2ccc3ccccc3c2)CC1 (stereo not given)
  u, 4%, 1%, 0%, 2%, u, -3%, -4.4%
- CC(C)CCN1CCN(Cc2nc(-c3ccc(F)cc3)cs2)CC1CCO (stereo not given)
  -1%[46.1 µM], 5%, x, -4%, 0%, x, 1%, x
- CCOc1ccc(-n2ccc(=O)c(C(=O)Nc3ccc(S(=O)(=O)N4CCOCC4)cc3)n2)cc1
  -5%[46.1 µM], -3%, x, 7%, -4%, 3%[46.1 µM], 4%, x
- Cc1nnc(SCC(=O)NNC(=O)c2ccc(Cl)cc2)n1CC1CCCO1 (stereo not given)
  u, -14%, x, -8%, 0%, 0%, -3%, x
- Cc1cccc(NC(=S)NNC(=O)c2sccc2C)c1
  u, -19%, -17%, 67%[activator], 3%, 2%, -8%, 1.1%
- CC(=O)Nc1ccc(OC(F)(F)C(F)C(F)(F)F)c(NC(C)=O)c1 (stereo not given)
  23%, 4%, 4%, 6%, 1%, 22%, 4%, 1.3%
- CCOc1ccc(Cn2c3ccc(OC)cc3c3nc4ccccc4nc32)cc1OC
  u, 1%, u, -24%, u, u, 16%, -3.4%
- CN(C)CCN1C(=O)C(=O)/C(=C(/O)c2ccc(S(=O)(=O)N3CCOCC3)cc2)C1c1ccccc1 (stereo not given)
  4%, 14%, -14%, x, 0%, 7%, 0%, -1.4%
- Cc1cccc(NC(=O)c2cnn(-c3ccccc3)c2C)c1C
  u, 6%, x, 38%[activator], -4%, -12%, -7%, x
- COc1cccc(-n2c(Cn3nc(C(F)F)cc3C(F)F)n[nH]c2=S)c1
  24%, -7%, 3%, 0%, -15%, 4%, 13%, -1.0%
- CCCNC(=O)c1nn2c(C(F)(F)F)cc(-c3ccccc3)nc2c1Br
  x, 17%, x, -19%, -4%, x, 7%, x
- CC(=O)c1ccc(OC(=O)N2CCOCC2)cc1
  14%, 7%, x, 49%[activator], -1%, u, -18%, x
- Nc1ccc(Oc2ccccc2-c2ccccc2)cc1
  5.6µM*, -7%, x, 7.9µM*, x, 5.6µM*, x, x

Going on with the list.
Under each structure: Marburg entry inh, RE007 growth inh, Cruzain inh noDet, StopGo reporter, SARS PLpro yeast, LASV entry inh, NS1 inh, Cruzain inh Det
- COc1cc(CN2CCC(CCC(=O)NC3CC3)CC2)cc(Cl)c1OC
  x, 9%, x, -15%, 1%, x, -6%, x
- Cc1cc(/C=N/NC(=O)c2ccc(O)cc2)c(C)n1C1CC1
  12%[46.1 µM], -10%, x, 7%, -1%, 17%, 16%, x
- CCOc1ccc(N(CC(=O)NCCSCc2ccccc2)S(C)(=O)=O)cc1
  x, 6%, x, -15%, -1%, x, -8%, x
- O=C(NNC(=O)c1ccccc1O)c1ccc(Cl)c(S(=O)(=O)N2CCCCC2)c1
  x, 46%, x, -14%, -3%, 3%, x, x
- CCCNS(=O)(=O)c1ccc(CCC(=O)N2CCCC2)cc1
  0%[46.1 µM], 13%, x, 11%, 0%, -4%, -1%, x
- COc1cccc(CNC(=O)CN2C(=O)CCc3cc(S(=O)(=O)N4CCOCC4)ccc32)c1
  x, x, -3%, -5%, x, 21%[46.1 µM], x, 0.3%
- CN1C(=O)SC(Nc2ccc(F)cc2)C1=O (stereo not given)
  14%[46.1 µM], -20%, -1%, -13%, -4%, 2%, -52%, 1.8%
- O=C(Nc1ccccc1Oc1cccnc1)C1CCCN(C/C=C/c2ccc(F)cc2)C1 (stereo not given)
  u, 6%, x, u, u, 4%, -3%, x
- Cc1cc(C(=O)CCl)c(C)n1-c1cccc(S(=O)(=O)N2CCOCC2)c1
  u, -3%, x, 25µM*, u, -12%, x, x
- O=C(c1ccc2c(c1)OCO2)C1CCCN(Cc2cccn2-c2cccnc2)C1 (stereo not given)
  -44%[46.1 µM], -1%, x, u, 0%, -26%, 1%, x
